Six1-Eya2 inh = qHTS Assay for Inhibitors of the Six1/Eya2 Interaction. Homeobox protein SIX1 (Homo sapiens) + Protein phosphatase EYA2 (Homo sapiens), …. AlphaScreen GST-Six1/His-Eya2 binding, biochemical; active compounds read low; control for the full effect not named in the record. activity change, % (concentration not given with the values). 360,000 compounds, 0.56% hits. AID 651725, 2012; in the data active = activity change below about -65%; inconclusive = about -30% to -65%; inactive = above about -30%; also: % is scaled to controls: 0 for no effect and ±100 for the full control effect
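Homogeneous AlphaScreen proximity assay pairing GST-Six1 with His-tagged Eya2 (added as 5X mix: 250 nM and 500 nM) in 50 mM Tris pH 8.0, 300 mM NaCl, 1 mM TCEP. Glutathione donor and nickel acceptor beads; 1 h, 37 °C, dark.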
D2 potentiator = Beta-Arrestin HTS for Positive Allosteric Modulators of the Human D2 Dopamine Receptor: Potentiators. D(2) dopamine receptor (Homo sapiens), P14416. DiscoveRx D2 beta-arrestin cells, luminescence, 90 min; 100% = 57 uM dopamine signal. potentiation, % (concentration not given with the values). 360,000 compounds, 0.23% hits. AID 624464, 2012; active = potentiation of 50% or more; inconclusive = 30% to 50%; inactive = 30% or less;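 also: tested on top of an EC20 dose of dopamine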
Target sequence (P14416 whole entry, looked up): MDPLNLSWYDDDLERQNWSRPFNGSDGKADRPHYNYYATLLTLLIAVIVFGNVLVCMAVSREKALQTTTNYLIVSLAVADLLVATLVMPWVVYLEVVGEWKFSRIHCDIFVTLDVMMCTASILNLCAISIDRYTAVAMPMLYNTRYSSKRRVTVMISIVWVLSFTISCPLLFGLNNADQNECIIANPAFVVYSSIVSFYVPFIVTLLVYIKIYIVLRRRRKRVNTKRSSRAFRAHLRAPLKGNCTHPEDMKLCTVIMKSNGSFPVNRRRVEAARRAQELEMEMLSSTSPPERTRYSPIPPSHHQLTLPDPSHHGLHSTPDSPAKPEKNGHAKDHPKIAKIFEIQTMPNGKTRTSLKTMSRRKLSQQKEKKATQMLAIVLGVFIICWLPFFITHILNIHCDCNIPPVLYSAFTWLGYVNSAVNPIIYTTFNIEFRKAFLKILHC
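D2 cells co-treated with compound plus 50 nM dopamine (EC20) for 90 min at 37 deg C to detect potentiation. Beta-arrestin recruitment was read as enzyme-fragment luminescence after 1 h at ambient temperature. Full response was set by 57 uM dopamine.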
gsp agonist = qHTS for Agonist of gsp, the Etiologic Mutation Responsible for Fibrous Dysplasia/McCune-Albright Syndrome: qHTS. gsp mutant cells, cAMP HTRF, 30 min; control for the full effect not named in the record. Potency, µM (top dose mostly 76.9 µM), for the others: top-dose activation (cAMP increase), actives largely listed as activators. 340,000 compounds, 0.13% hits. AID 624287, 2012; active = well fitted activation curve with a large enough effect; inconclusive = small, poorly fitted or top-dose-only effect, or another doubt; inactive = no such curve, though single readings can be large or run the other way; cell line not stated here;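 also: phosphodiesterase inhibitor Ro 20-1724 added with compounds to block cAMP breakdown; potency is read from the fitted curve at half-maximal effect; nearly all actives have a fitted effect of over 60% in size; about a fifth of the inactives were tested at one dose only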
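Cells in DMEM/10% FBS with G418 were pretreated with compounds in DMSO plus […] (300 uM stock) for 30 min at 37C. cAMP was measured by HTRF (cAMP-d2 plus anti-cAMP antibody-K) after 30 min at room temperature.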
gsp antag = qHTS for Antagonists of gsp, the Etiologic Mutation Responsible for Fibrous Dysplasia/McCune-Albright Syndrome: qHTS. gsp-mutant cells, cAMP HTRF, 30 min; control for the full effect not named in the record. Potency, µM (highest dose often 76.9 µM), for the others: at the highest dose activity change, negative = inhibition, usual class: inhibitors. 340,000 compounds, 0.4% hits. AID 624288, 2012; active = falling curve of any shape with a large fitted effect; inconclusive = falling curve, mostly with a smaller effect; inactive = flat or rising curve; cell line not stated here;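 also: intracellular cAMP measured with PDE inhibitor Ro 20-1724 present during compound exposure; potency is read from the fitted curve at half-maximal effect; % is scaled to controls: 0 for no effect and ±100 for the full control effect; nearly all actives have a fitted effect of over 65% in size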
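Cells in G418 medium, seeded 16-24 h, 37C; buffer exchange to DPBS + 1 mM CaCl2, 0.5 mM MgCl2, 0.05% BSA; cpds in DMSO + […] (300 uM stock), 30 min 37C; HTRF cAMP detection.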
CtBP-E1A blk = qHTS Assay for Inhibitors of the CtBP/E1A Interaction; CtBP / adenovirus E1A interaction (AlphaScreen); AlphaScreen GST-E1A/His-CtBP binding, 1536-well; active compounds read low; control for the full effect not named in the record; activity change, % (concentration not given with the values); 340,000 compounds, 0.49% hits; AID 651724, 2012; in the data active means activity change below about -65%; inconclusive means about -30% to -65%; inactive means above about -30%; also: % is scaled to controls: 0 for no effect and ±100 for the full control effect
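In 5 uL wells, 23 nL compound meets equimolar GST-E1A and His-CtBP (5X stock 125 nM each) for 2 h, 37 °C. Beads (5X, 50 ug/mL) then 1 h, 37 °C, dark.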
D2 agonist = Beta-Arrestin HTS for Positive Allosteric Modulators of the Human D2 Dopamine Receptor: Agonists; D(2) dopamine receptor (Homo sapiens), P14416; DiscoveRx PathHunter D2 beta-arrestin, luminescence, 90 min; 100% = 57 uM dopamine signal; activation, % (test concentration not listed); 360,000 compounds, 0.084% hits; in the data active = activation above about 40%; inconclusive = about 15% to 40%; inactive = below about 15%; also: compound concentration not given in the record; the text of the record calls up to 30% inactive
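DiscoveRx PathHunter D2 beta-arrestin cells (2,100/well) attached overnight, then compound-stimulated 90 min at 37 C in HBSS/10 mM HEPES/0.1% Tween-20 buffer; beta-galactosidase complementation read by luminescence after 1 h at ambient temperature. Dopamine 57 uM final (EC100) as control.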
* = called active by the depositor; [ ] = remark or other dose. The order is random; about 1.4% have a hit in one of these screens.

How did Cc1ccc(OCC(=O)Nc2ccc3c(c2)ncn3C)cc1 do in these assays?
Six1-Eya2 inh: -8; D2 potentiator: -8; gsp agonist: -11%[15.4 µM]; gsp antag: 6%; CtBP-E1A blk: 4; D2 agonist: -2.1

Results for COc1ccc(CC(=O)N(CCC2=CCCCC2)c2c(N)n(Cc3ccccc3)c(=O)[nH]c2=O)cc1 ?
Six1-Eya2 inh: 1; D2 potentiator: -22; gsp agonist: -31%[inhibitor]; CtBP-E1A blk: -11; D2 agonist: -2.8

Results for O=C(CC1NCCc2ccccc21)Nc1ccccc1 (centres undefined) ?
Six1-Eya2 inh: 9; D2 potentiator: -20; gsp agonist: 25%[15.4 µM]; gsp antag: -1%; CtBP-E1A blk: 20; D2 agonist: 1.5

Results for C=CC[C@@H](CC(=O)N(CCO)Cc1ccccc1)C(=O)N[C@H](COC(=O)[C@@H](CC=C)Cc1ccc(F)cc1)c1ccccc1 ?
Six1-Eya2 inh: -4; D2 potentiator: -8; gsp antag: inconclusive; CtBP-E1A blk: -2; D2 agonist: -0.9

How did CCOc1ccc(C(=O)NC(C(=O)NCC(c2cccs2)N(C)C)C(C)C)cc1 (centres undefined) do in these assays?
Six1-Eya2 inh: 6; D2 potentiator: -2; gsp agonist: 7%; gsp antag: -9%; CtBP-E1A blk: -9; D2 agonist: -4.3

How did COc1ccc(C(=O)NC(CC(C)C)C(=O)O)cc1 (centres undefined) do in these assays?
Six1-Eya2 inh: 10; D2 potentiator: -2; gsp agonist: -12%; gsp antag: 6%; CtBP-E1A blk: 4; D2 agonist: -1.4

Results for CCOC(=O)N1CCN(CCC(=O)c2ccc(OC)cc2)CC1 ?
Six1-Eya2 inh: -10; D2 potentiator: -3; gsp agonist: -44%; gsp antag: 2%; D2 agonist: -1.3

What do the screens show for `O=C(NCCOc1ccccc1)c1cccc(S(=O)(=O)NCc2ccccc2)c1`?
Six1-Eya2 inh: -4; D2 potentiator: -4; gsp agonist: 22%[15.4 µM]; gsp antag: -12%; CtBP-E1A blk: 9; D2 agonist: 6.8

What do the screens show for `CSc1ccccc1OCc1cc(C(=O)N2CCc3[nH]cnc3C2c2ccccn2)no1` (centres undefined)?
Six1-Eya2 inh: inconclusive; D2 potentiator: -13; gsp agonist: -35%[inhibitor]; gsp antag: -2%; CtBP-E1A blk: -27; D2 agonist: -4.4

What do the screens show for `COc1ccc(NC(=O)CSC2=NCCN2)cc1`?
Six1-Eya2 inh: -26; D2 potentiator: -11; gsp agonist: -9%[15.4 µM]; gsp antag: 10%; CtBP-E1A blk: -6; D2 agonist: -4.8

Entries listed so far that have four or more nitrogen atoms, in the order listed:
Results for COc1ccc(CC(=O)N(CCC2=CCCCC2)c2c(N)n(Cc3ccccc3)c(=O)[nH]c2=O)cc1 ?
Six1-Eya2 inh: 1; D2 potentiator: -22; gsp agonist: -31%[inhibitor]; CtBP-E1A blk: -11; D2 agonist: -2.8

What do the screens show for `CSc1ccccc1OCc1cc(C(=O)N2CCc3[nH]cnc3C2c2ccccn2)no1` (centres undefined)?
Six1-Eya2 inh: inconclusive; D2 potentiator: -13; gsp agonist: -35%[inhibitor]; gsp antag: -2%; CtBP-E1A blk: -27; D2 agonist: -4.4

More structures follow:
How did O=C(NCc1ccccc1OC(F)(F)F)C1CCC(=O)N(C2CC2)C1 (centres undefined) do in these assays?
Six1-Eya2 inh: 1; D2 potentiator: 3; gsp agonist: 21%; gsp antag: 11%; CtBP-E1A blk: 6; D2 agonist: -4.7

How did Cc1cc(C)c(C)c(S(=O)(=O)N2CCC(C(=O)NCCCN3CCOCC3)CC2)c1C do in these assays?
Six1-Eya2 inh: -2; D2 potentiator: -3; gsp agonist: 15%; gsp antag: 17%; CtBP-E1A blk: -1; D2 agonist: 0.9

How did Cn1nnc(C(O)CNCc2ccc(Cl)cc2)n1 (centres undefined) do in these assays?
Six1-Eya2 inh: 0; D2 potentiator: -7; gsp agonist: 11%[15.4 µM]; gsp antag: 6%; CtBP-E1A blk: -8; D2 agonist: -2.7

Results for Cc1nn(Cc2ccccc2Cl)c(C)c1C(=O)NCCN1C(=O)S/C(=C\c2ccccc2)C1=O ?
Six1-Eya2 inh: 3; D2 potentiator: -6; gsp agonist: 9%[15.4 µM]; gsp antag: -1%; CtBP-E1A blk: -6; D2 agonist: -0.1

Results for Cc1ncc(C[n+]2csc(CCOC(=O)CC34CC5CC(CC(C5)C3)C4)c2C)c(N)n1 ?
Six1-Eya2 inh: 1; D2 potentiator: -9; gsp agonist: 19%; gsp antag: 11%; CtBP-E1A blk: 6; D2 agonist: -3.0

Results for Cc1cccc(C(=O)NCC(=O)OCC(=O)N2CCc3ccccc32)c1 ?
Six1-Eya2 inh: 6; D2 potentiator: -4; gsp agonist: 6%[15.4 µM]; gsp antag: -5%; CtBP-E1A blk: -19; D2 agonist: 0.4

How did Clc1ccc(CN2CCN(c3ncccn3)CC2)cc1 do in these assays?
Six1-Eya2 inh: -3; D2 potentiator: 53*; gsp agonist: 0%[15.4 µM]; gsp antag: 16%; CtBP-E1A blk: -1; D2 agonist: 68*

Results for CSc1nc(N)nc(SCC(=O)C(C)(C)C)c1C#N ?
Six1-Eya2 inh: -5; D2 potentiator: -26; gsp agonist: 1%; gsp antag: 0%[15.4 µM]; CtBP-E1A blk: -6; D2 agonist: -6.1

What do the screens show for `Cc1sc2nc(C(C)C)nc(SCC(=O)N3CCN(C(=O)c4ccco4)CC3)c2c1C`?
Six1-Eya2 inh: -18; D2 potentiator: 1; gsp agonist: -12%; gsp antag: -22%; CtBP-E1A blk: -10; D2 agonist: -3.0

Results for COc1ccccc1/C=c1\sc2nc(-c3ccccc3OC)nn2c1=O ?
Six1-Eya2 inh: 1; D2 potentiator: 17; gsp agonist: -1%; gsp antag: 10%; CtBP-E1A blk: -5; D2 agonist: -3.3

What do the screens show for `Cc1nc2cc(Cl)ccc2n1-c1ccccc1`?
Six1-Eya2 inh: 1; D2 potentiator: -13; gsp agonist: 13%; gsp antag: -2%; CtBP-E1A blk: 8; D2 agonist: -4.9

What do the screens show for `C[C@H](CO)N1C[C@H](C)[C@@H](CN(C)S(=O)(=O)c2cccs2)Oc2c(NS(=O)(=O)c3cn(C)cn3)cccc2C1=O`?
Six1-Eya2 inh: 1; D2 potentiator: -4; gsp antag: 0%; CtBP-E1A blk: 3; D2 agonist: -2.0

What do the screens show for `CN1C(=O)CSc2ccc(NC(=O)NCc3ccco3)cc21`?
Six1-Eya2 inh: -6; D2 potentiator: -15; gsp agonist: 11%; gsp antag: 5%; CtBP-E1A blk: 7; D2 agonist: -1.3

How did CCCC(c1nnnn1Cc1ccc(F)cc1)N1CCN(C)CC1 (centres undefined) do in these assays?
Six1-Eya2 inh: 3; D2 potentiator: -7; gsp agonist: inconclusive; gsp antag: 9%; CtBP-E1A blk: 2; D2 agonist: 1.3

How did COc1ccc(C(=O)c2cnc3ccccc3c2-c2ccccc2)cc1 do in these assays?
Six1-Eya2 inh: -4; D2 potentiator: -7; gsp agonist: 14%; gsp antag: inconclusive; CtBP-E1A blk: -2; D2 agonist: -0.6

Results for O=C(COc1cccc(C(F)(F)F)c1)NNC(=O)Cc1ccc(S(=O)(=O)N2CCOCC2)s1 ?
Six1-Eya2 inh: 0; D2 potentiator: -6; gsp agonist: -23%; gsp antag: 14%; CtBP-E1A blk: 2; D2 agonist: 8.5

What do the screens show for `COc1ccc(/C=N/NC(=O)c2c(-c3ccccc3)noc2C)cc1`?
Six1-Eya2 inh: 1; D2 potentiator: 9; gsp agonist: 6%[15.4 µM]; gsp antag: -12%; CtBP-E1A blk: -2; D2 agonist: 3.0

How did Cc1ccc(C)c(OCC(=O)Nc2c(C)n(C)n(-c3ccccc3)c2=O)c1 do in these assays?
Six1-Eya2 inh: 8; D2 potentiator: -13; gsp agonist: -56%[inhibitor]; gsp antag: 4%; D2 agonist: -4.5

What do the screens show for `O=C(CN1CCCCC1)Nc1cccc(Cl)c1Cl`?
Six1-Eya2 inh: 3; D2 potentiator: -8; gsp agonist: -19%; gsp antag: -5%; CtBP-E1A blk: 12; D2 agonist: -4.2

How did CCOC(=O)c1sc2nc(C)n(N)c(=O)c2c1C do in these assays?
Six1-Eya2 inh: 5; D2 potentiator: -5; gsp agonist: -5%; gsp antag: 0%; CtBP-E1A blk: 3; D2 agonist: 1.9

What do the screens show for `O=C(COc1ccccc1O)NCCN1CCOCC1`?
Six1-Eya2 inh: -7; D2 potentiator: -6; gsp agonist: -1%; gsp antag: 7%; CtBP-E1A blk: -1; D2 agonist: -1.9

Results for CCn1c(C)c(C)c2cc(C(=O)NCCCN3CCOCC3)ccc21 ?
Six1-Eya2 inh: -8; D2 potentiator: -27; gsp agonist: -11%; gsp antag: -5%; CtBP-E1A blk: -5; D2 agonist: -5.2

Results for Cc1ccc(C(CNS(=O)(=O)c2ccc(Br)cc2)N2CCN(C)CC2)cc1 (centres undefined) ?
Six1-Eya2 inh: 0; D2 potentiator: -35; gsp agonist: -4%; gsp antag: 8%; CtBP-E1A blk: 0; D2 agonist: -0.7

Results for COc1ccc(CC(NC(C)=O)C(=O)NC2CCN(C(=O)NCc3ccccc3)CC2)cc1 (centres undefined) ?
Six1-Eya2 inh: 5; D2 potentiator: 0; gsp agonist: -3%; gsp antag: 1%; CtBP-E1A blk: -3; D2 agonist: 0.6

Results for CCC(=O)N1CCC(C)(C(=O)NCc2cccc(OC)c2)C1 (centres undefined) ?
Six1-Eya2 inh: 1; D2 potentiator: -6; CtBP-E1A blk: 7; D2 agonist: 3.5

What do the screens show for `CCOC(=O)N1CCN(C(=O)c2oc3ccc(S(=O)(=O)N4CC(C)CC(C)C4)cc3c2C)CC1` (centres undefined)?
Six1-Eya2 inh: 0; D2 potentiator: 10; gsp agonist: 3%; gsp antag: 35µM*; CtBP-E1A blk: -8; D2 agonist: 1.6

What do the screens show for `O=C(CSc1nnc2ccccn12)NCc1cccs1`?
Six1-Eya2 inh: -1; D2 potentiator: -10; gsp agonist: inconclusive; gsp antag: -2%; CtBP-E1A blk: 1; D2 agonist: -2.4

How did CCn1c(=O)cc(N2CCC3(CC2)OCCO3)[nH]c1=O do in these assays?
Six1-Eya2 inh: 2; D2 potentiator: -8; gsp agonist: 4%; gsp antag: 2%; CtBP-E1A blk: -3; D2 agonist: -6.8

Compound activity as filed in PubChem BioAssay.
